Compound activity (PubChem BioAssay)
Vaccinia Venus: vaccinia inhibition (Venus reporter); Vaccinia virus Venus reporter expression, fluorescence; Potency, µM (highest dose often 36.5 µM), for inactives: at the top dose activity change, negative = inhibition, most hits filed as inhibitors; actives 0.46% (n = 330,000); AID 720580; active means well fitted inhibition curve with a large enough effect; inconclusive means small, poorly fitted or top-dose-only effect; inactive means no such curve, though single readings can be large or run the other way; tested in A549 cells; further: nearly all actives have a fitted effect of over 30% in size; inactives centre near -10
VACV mCherry inh: inhibitors of vaccinia virus infection (mCherry reporter signal). Vaccinia virus mCherry reporter infection, fluorescence; about a quarter of the inactives have no number. Potency, µM (highest dose often 36.5 µM), for the others: top-dose activity change, negative = inhibition, usual class: inhibitors. actives 0.63% (n = 310,000); active = well fitted inhibition curve with a large enough effect; inconclusive = small, poorly fitted or top-dose-only effect; inactive = no such curve, though single readings can be large or run the other way; tested in A549 cells; further: nearly all actives have a fitted effect of over 35% in size; inactives centre near -10
Active calls of the source: *; i = inactive; ? = inconclusive; / = no result given; & = joins results of further samples; [ ] = remark or other dose. On the % scale 0 is the no-effect control and ±100 the full control effect; potency means the concentration at half of the fitted maximal effect. This is a random part of the collection; 0.87% or so of the library scored in one or more.

Each structure is followed by: VACV mCherry inh	Vaccinia Venus
1) COc1cccc(CNC(=O)CSC(=S)N2CCCC2)c1
 : -21%	-16%
2) CCN1C(=O)[C@H]2[C@@H](c3ccc(C)cc3)N3C(=O)N(c4ccc(C)cc4)C(=O)[C@@]3(CC)[C@H]2C1=O
 : i	-10%
3) C(=N\Nc1nc2ccccc2s1)/c1ccccn1
 : 13µM*	?
4) O=C1c2ccccc2-c2c1c1ccccc1c(=O)n2CCO
 : -20%	?
5) CC(C)CN(C(=O)COC(=O)COc1ccc2c(c1)CCC2)c1c(N)n(Cc2ccccc2)c(=O)[nH]c1=O
 : i	-15%
6) CCc1nn2c(=O)c(S(=O)(=O)Nc3ccc(C(C)C)cc3)c(C)nc2s1
 : -27%&-9%	-16%&-18%
7) CCn1c(SCC(=O)Nc2nonc2C)nnc1-c1ccco1
 : -7%	-5%
8) COc1ccc(/C=N/NC(=O)c2nc(-c3ccccc3)n(-c3ccccc3)n2)cc1OC
 : -2%	-2%
9) COc1ccccc1/C=C/c1nc2ccccc2n1C(C)C
 : -29%	-17%
10) COc1ccc(Cl)cc1N(C)C(=O)Cn1cnc2sc(C)c(S(=O)(=O)N3CCN(c4ncccn4)CC3)c2c1=O
 : 13%	11%
11) CCOc1ccc(C(=O)Cn2c(=O)n3nc(CCn4nc(C)cc4C)nc3c3cc(OC)c(OC)cc32)cc1
 : 3.5µM*	?
12) Cc1cc(OCC(=O)Nc2sc3c(c2C(N)=O)CCCC3)ccc1C(C)C
 : 2%	2%
13) CN(Cc1cccnc1)Cc1cn[nH]c1-c1ccc(-c2ccccc2)cc1
 : -8%	-11%
14) COc1cc(/C=C/C(=O)OCC(=O)NCc2ccco2)ccc1O
 : -20%	-25%
15) O=C(COC(=O)/C=C/c1cccs1)Nc1ccc2ccccc2c1
 : -15%	-9%

Profiles, looked up by structure. Order of screens: VACV mCherry inh | Vaccinia Venus
Results for CCN1C(=O)[C@H]2[C@@H](c3ccc(C)cc3)N3C(=O)N(c4ccc(C)cc4)C(=O)[C@@]3(CC)[C@H]2C1=O → i | -10%
Results for CCOc1ccc(C(=O)Cn2c(=O)n3nc(CCn4nc(C)cc4C)nc3c3cc(OC)c(OC)cc32)cc1 → 3.5µM* | ?
Results for COc1ccccc1/C=C/c1nc2ccccc2n1C(C)C → -29% | -17%
Results for COc1ccc(/C=N/NC(=O)c2nc(-c3ccccc3)n(-c3ccccc3)n2)cc1OC → -2% | -2%
Results for O=C(COC(=O)/C=C/c1cccs1)Nc1ccc2ccccc2c1 → -15% | -9%

(further entries)
Each structure is followed by: VACV mCherry inh	Vaccinia Venus
16) COC(=O)c1sc2nc(C)nc(SCC(=O)C(C)(C)C)c2c1C
 : i	-11%
17) Cc1ccc(-c2nnc(Nc3ccc(O)cc3)c3ccccc23)cc1S(=O)(=O)NCc1nc2ccccc2[nH]1
 : -5%	4%
18) COCCNC(=S)N(CCc1c(C)[nH]c2ccc(Cl)cc12)Cc1cccnc1
 : i	-22%
19) O=C(Cn1nnc2ccccc2c1=O)NCCc1ccccc1
 : i	-4%
20) N#CC1=C(N)OC2=C(C(=O)CCC2)C12C(=O)N1CCCc3cccc2c31 (configuration not stated)
 : /	-25%
21) COc1ccc(Cl)cc1NC(=O)c1nn(-c2ccc(C)cc2)c(=O)n(C)c1=O
 : -15%	-11%
22) CN(Cc1cnn(C)c1)S(=O)(=O)c1cccc([N+](=O)[O-])c1
 : 2%	-1%
23) O=C(Nc1ccc(F)cc1)N1CCN(C(=O)c2nsc3ccccc23)CC1
 : -18%	-12%
24) COc1ccccc1N1CCN(C(=O)CSc2nnc3c4ccccc4n(CC(=O)O)c3n2)CC1
 : i	-6%
25) CC(=O)c1cccc(NC(=O)C2CCN(C(=O)c3ccccc3Cl)CC2)c1
 : -3%	-13%
26) O=C(Nc1ccc(C(=O)O)cc1)/C(=C\C=C\c1ccccc1)NC(=O)c1ccccc1Cl
 : -2%	-4%
27) N#CCc1nnc2n1-c1ccccc1CCC2
 : -3%	-12%
28) c1ccc(Nc2nnc(-c3cccnc3)s2)cc1
 : -10%	-2%
29) CC(=O)Oc1ccc2c(=O)c(N3C(=O)c4ccccc4C3=O)c(C)oc2c1C
 : -15%	-2%
30) COc1ccc(CNC(=O)CC2Oc3ccc(C)cc3NC2=O)cc1 (configuration not stated)
 : -6%	-10%
31) CCOc1ccccc1-c1noc(CSc2nnc(-c3ccncc3)n2-c2ccc(F)cc2)n1
 : i	-26%
32) CCCCC(=O)N(C)c1c(C)nc2ccc(C(=O)N3CCN(S(=O)(=O)CC)CC3)cn12
 : -13%	-9%
33) CCC(C(=O)OC(C)C)c1ccc2ccccc2c1 (configuration not stated)
 : -19%	-4%
34) Cc1oc(-c2ccc(C(=O)Nc3ccc(F)cc3)cc2)nc1COc1ccccc1
 : -20%	-17%
35) Cc1ccccc1NS(=O)(=O)c1ccc(C(=O)NCc2ccccc2CN2CCCC2)cc1
 : -14%	-24%
36) Nc1cc2c(cc1C(=O)c1ccccc1)OCCO2
 : -2%	-12%
37) COc1ccc(-c2cc(C(=O)NCCCN3CCCC3=O)c3ccccc3n2)cc1
 : i	-11%
38) CN(C)S(=O)(=O)c1ccc(C(=O)Nc2nc3ccccc3[nH]2)cc1
 : -18%	-14%
39) COCCCN(C(=S)Nc1c(C)cc(C)cc1C)C(C)c1ccncc1 (configuration not stated)
 : -9%	-2%
40) COC(=O)c1c(C)oc2ccc(N(C(=O)c3ccncc3)S(=O)(=O)c3cc(C)c(C)cc3C)cc12
 : -9%[7.34 µM]	-18%[7.34 µM]
41) O=C(Cn1cnc2c(nnn2Cc2ccc(F)cc2)c1=O)OCc1ccccc1
 : -16%	-9%
42) Cc1ccc(C(=O)OCC(=O)N(C)C2CCS(=O)(=O)C2)cc1[N+](=O)[O-] (configuration not stated)
 : i	-1%
43) COc1ccc(Cn2c(=O)cc(N)n(-c3ccccc3C)c2=O)cc1
 : -13%	-20%
44) CCN1CCN(c2nc(C)c3c(n2)CCCC3=O)CC1
 : i	-15%
45) COc1ccc(N2CCN(C(=O)NCc3ccc(OC)c(Cl)c3)CC2)cc1
 : ?	1%
46) C=CC[C@@H](Cc1ccc(F)cc1)C(=O)OC[C@H]1CCCN1C(=O)[C@@H](CC=C)CC(=O)N[C@H](CO)Cc1ccccc1
 : -15%	-30%
47) Cc1ccccc1-c1cc2nc(NCCN3CCCC3)n(C)c(=O)c2s1
 : -5%	-12%
48) CSCCC(NS(=O)(=O)c1ccc(C)c(C(=O)O)c1)C(=O)O (configuration not stated)
 : 0%	-8%
49) N/C(=N\OC(=O)c1ccc([N+](=O)[O-])cc1)c1ccc(Br)cc1
 : -10%	-10%
50) CCOc1ccc(NC(=O)C2CCN(c3nc4ccccc4[nH]3)CC2)cc1
 : -19%	-4%
51) CCOC(=O)c1[nH]ncc1[C@@H]1C[C@H]2CN(Cc3cccc(Cl)c3)C(=O)[C@]23CCCN13
 : -10%[7.34 µM]	-12%[7.34 µM]
52) COc1ccc(NC(=O)COC(=O)c2ccc3c(c2)OCO3)c(OC)c1
 : -10%	-13%
53) CCOC(=O)C1CCCN(c2c(NCCc3ccc(C)cc3)c(=O)c2=O)C1 (configuration not stated)
 : i	-3%
54) CCN(Cc1ccncc1)C(=O)C(CO)c1ccccc1 (configuration not stated)
 : 5%	-11%&8%
55) COc1ccccc1C(=O)N/C(=C\c1ccc2c(c1)OCO2)C(=O)NCCc1nc2ccccc2[nH]1
 : -5%	-15%
56) O=C(Cn1c(=O)cnc2ccccc21)Nc1ccccc1N1CCOCC1
 : -9%	-16%
57) O=S(=O)(N/N=C1\CC(c2ccccc2)Oc2ccccc21)c1ccccc1 (configuration not stated)
 : -25%	-16%
58) O=C(NCc1ccccc1F)C1CCCN(C(=O)Nc2ccc(F)cc2)C1 (configuration not stated)
 : 7%	-6%
59) O=C1/C(=C/c2ccccc2F)SC(=S)N1CCC(=O)N1CCCCC1CCO (configuration not stated)
 : ?	-26%
60) COc1cc(NC(=O)c2cc([N+](=O)[O-])ccc2NC(=O)CN2CCN(c3ccccn3)CC2)cc(OC)c1
 : -3%	-13%
61) COc1ccc(/C=N/NC(=O)c2ccc(COc3ccccc3Cl)o2)c(OC)c1C
 : ?	?
62) COC(=O)COc1ccc(Oc2nc(SC)nc(N(C)C)n2)nn1
 : -13%	-5%
63) CCCCCC(=O)Nc1ccccc1N1CCOCC1
 : i	-13%
64) O=C1OCCC1Sc1nc2ccccc2c(=O)n1-c1ccc(F)cc1 (configuration not stated)
 : -5%	-10%
65) COc1ccc(NC2CCCN(C(=O)c3ccc4nccnc4c3)C2)cc1OC (configuration not stated)
 : -10%	-10%
66) Cc1ccccc1C(=O)N1CCC(C(=O)NCCc2ccc(S(N)(=O)=O)cc2)CC1
 : i	2%
67) Cc1c(N=Cc2ccc(-c3ccc(Cl)cc3)o2)c(=O)n(-c2ccccc2)n1C
 : /	10%
68) Fc1ccc(Oc2ccc3nnc(C(F)(F)F)n3n2)cc1
 : -8%	-14%
69) COc1ccc(C(C(=O)NC2CCCC2)N(C(=O)CNC(=O)c2ccco2)c2cccnc2)cc1 (configuration not stated)
 : -3%	-7%
70) CCCN1C(=O)C(NC(C)=O)c2cc(OC)ccc21 (configuration not stated)
 : /	-6%
71) CCCOc1ccc(Cl)cc1CN1CCOCC1
 : i	-11%
72) CC(=O)c1ccc(S(=O)(=O)N2CCN(C(=O)CCC3CCCC3)CC2)cc1
 : i	-14%
73) CCCC(CNC(=O)COC(=O)C1=NNC(=O)CC1)c1ccc(Cl)cc1Cl (configuration not stated)
 : -3%	0%
74) Cc1cc2ncn(S(=O)(=O)N3CCOCC3)c2cc1C
 : -28%	-18%
75) NS(=O)(=O)c1ccc(NC(=S)NC2CC2)cc1
 : i	-8%

Another view of four compounds above:
64: O=C1OCCC1Sc1nc2ccccc2c(=O)n1-c1ccc(F)cc1 (configuration not stated)
  VACV mCherry inh: -5%	Vaccinia Venus: -10%

65: COc1ccc(NC2CCCN(C(=O)c3ccc4nccnc4c3)C2)cc1OC (configuration not stated)
  VACV mCherry inh: -10%	Vaccinia Venus: -10%

66: Cc1ccccc1C(=O)N1CCC(C(=O)NCCc2ccc(S(N)(=O)=O)cc2)CC1
  VACV mCherry inh: i	Vaccinia Venus: 2%

67: Cc1c(N=Cc2ccc(-c3ccc(Cl)cc3)o2)c(=O)n(-c2ccccc2)n1C
  VACV mCherry inh: /	Vaccinia Venus: 10%

The list continues.
Each structure is followed by: VACV mCherry inh	Vaccinia Venus
76) Cc1ccc(CC(=O)NCc2nc(-c3cccc(C)c3)no2)cc1
 : -11%	-1%
77) CCOC(=O)c1ccc(Oc2c(C)oc3c(CN4CCN(C)CC4)c(O)ccc3c2=O)cc1
 : /	-13%
78) COc1cc(S(=O)(=O)NCc2ccccn2)ccc1Cl
 : -3%	-18%
79) Nc1cc2nn(-c3ccccc3)nc2cc1Cl
 : -17%	-7%
80) O=Cc1ccc(-c2ccccc2OC(F)(F)F)o1
 : /	-16%
81) CCN(CC(=O)NCc1ccc(Cl)cc1)C(=O)C(C)Sc1ccccc1 (configuration not stated)
 : -15%	-26%
82) O=Cc1ccccc1OS(=O)(=O)c1ccccc1
 : -5%	-6%
83) CC1=NN(c2ccccc2)C(=O)C1C(=O)c1cc([N+](=O)[O-])cc([N+](=O)[O-])c1 (configuration not stated)
 : -15%	-11%
84) CC(=O)N1CCCc2cc(S(=O)(=O)N3CCN(c4ccc(F)cc4)CC3)ccc21
 : -4%	-14%
85) COc1ccc(Cn2cc(F)c(=O)n(CCC(C)C)c2=O)cc1[N+](=O)[O-]
 : /	?
86) Cc1ccc(CN(Cc2cccnc2)C(=S)Nc2cccc(Cl)c2C)cc1
 : -21%	-3%
87) NS(=O)(=O)c1ccc(N2N=C(c3ccccc3)CC2c2ccc(F)cc2)cc1 (configuration not stated)
 : -4%	-25%
88) O=C(CSc1nnc(-c2ccc(C(F)(F)F)cn2)s1)c1ccccc1
 : i	-3%
89) COc1cc2cc(CCCOC(=O)CCCC(=O)O)oc(=O)c2cc1OC
 : i	-14%
90) Cc1ccc(NC(=O)C(=O)NCC2CCCO2)cc1 (configuration not stated)
 : -15%	-10%
91) CN(C)S(=O)(=O)c1cc(NC(=O)COC(=O)CCSc2ccc(Cl)cc2)ccc1Cl
 : -17%	-11%
92) O=C(CN1CCN(C(=O)CNC(=O)c2ccc(N3CCCC3=O)cc2)CC1)Nc1cccc(F)c1
 : -19%	-8%
93) Cc1ccc(NC(=O)CCn2c(=O)[nH]c3ccsc3c2=O)cc1C
 : -5%	-2%
94) CC(C)c1ccc(OCC(=O)NCc2ccco2)cc1
 : -17%	-4%
95) Cc1cccc(-n2nnc(C(=O)NC3CCCc4ccccc43)c2N)c1 (configuration not stated)
 : ?	?
96) CCOC(=O)/C=C/C(=O)Nc1nccs1
 : -28%	-15%
97) Cc1cccc(CN(C)C[C@@H]2OCc3cnnn3CCCC(=O)N([C@@H](C)CO)C[C@H]2C)c1
 : i	-6%
98) Cc1ccc(C)c(S(=O)(=O)N2C(=S)NC(=O)C2CC(C)C)c1 (configuration not stated)
 : /	-11%
99) CCOC(=O)C1=C(C)N[C@@]2(O)c3ccccc3C(=O)[C@@]12O
 : -13%	-11%
100) O=C(O)CCCC(=O)Nc1ccc(S(=O)(=O)Nc2nccs2)cc1
 : -16%	-12%
101) C[C@@H](NC(=O)c1[nH]cnc1C(=O)Nc1ccccc1F)c1ccccc1
 : -9%	-14%
102) O=S(=O)(c1ccc(Cl)cc1)N1CN(CC2CCCO2)c2nc3ccccc3nc21 (configuration not stated)
 : 0%[7.34 µM]	10%[7.34 µM]
103) CC1CCCCC1NC(=O)c1cccc(S(=O)(=O)N2CCN(Cc3ccccc3)CC2)c1 (configuration not stated)
 : ?	-24%
104) COC(=O)c1ccc(Cn2nc(-c3cc(C)ccc3C)ccc2=O)cc1
 : -11%	-18%
